Compound activity (PubChem BioAssay)
GLA inh pH 4.5 – blocks human alpha-galactosidase A at pH 4.5. P06280. activity change, negative = inhibition, % at 105 µM. AID 1467. 230,000 tested, under 10 active. purified enzyme, 4-MU-alpha-Gal fluorescence, pH 4.5; inconclusive = small, poorly fitted or top-dose-only inhibition, or a rising curve; inactive = flat fitted curve, though single readings scatter; no compound was filed as active;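 further: 0% = full activity with enzyme and -100% = basal without enzyme; dose as in the result columns while the protocol names 77 µM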
Target sequence (P06280 whole entry, looked up): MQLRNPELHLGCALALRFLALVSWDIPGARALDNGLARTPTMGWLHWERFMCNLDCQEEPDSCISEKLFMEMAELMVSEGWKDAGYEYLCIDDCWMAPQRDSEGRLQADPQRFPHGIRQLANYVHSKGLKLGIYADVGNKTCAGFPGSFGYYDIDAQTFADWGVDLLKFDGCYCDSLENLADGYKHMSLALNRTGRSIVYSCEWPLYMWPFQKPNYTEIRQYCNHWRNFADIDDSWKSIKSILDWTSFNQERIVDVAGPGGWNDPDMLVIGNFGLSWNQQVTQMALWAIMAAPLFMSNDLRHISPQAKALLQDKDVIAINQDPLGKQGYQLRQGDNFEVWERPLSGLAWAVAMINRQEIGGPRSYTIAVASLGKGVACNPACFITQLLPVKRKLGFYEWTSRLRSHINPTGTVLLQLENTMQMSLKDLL
Rango dissoc inh – inhibition of RanGTP-driven Rango-importin beta dissociation | O95149+P62826 | Biochemical FRET Rango-importin beta, RanGTP-induced dissociation | Potency, µM (series often up to 46.1 µM), inactives show at the top dose activity change, negative = inhibition | 340,000 tested, 0.071% active; active means falling FRET ratio curve, often poorly fitted, with flat reads before Ran was added; inconclusive means other falling curves, or compound fluorescence or quenching; inactive means flat or rising ratio curve;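 further: potency means the concentration at half of the fitted maximal effect; % of control where 0% means no effect; nearly all actives have a fitted effect of over 45% in size; -100% = wells without RanGTP and RCC1; the record marks most hits as doubtful in a second field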
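FRET read at 45 min, room temperature: inhibitors block the CFP/YFP signal rise when RanGTP (0.6 uM Ran, 2 mM GTP, 0.2 uM RCC1) frees Rango (0.1 uM) from importin beta (0.25 uM). Pre-read after 5 min compound exposure flags interference.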
miR-21 FLuc – raises the signal of a miR-21 reporter | HeLa miR-21 FLuc reporter, luciferase, 48 h | Potency, µM (doses to about 38.3 µM), without a hit: at the top dose reporter change, positive = more light | 340,000 tested, under 10 active | AID 2288; active = well fitted rising curve with a large enough effect; inconclusive = small, poorly fitted or top-dose-only effect; inactive = no such curve, though single readings can be large or run the other way;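 further: % of control where 0% means no effect; miR-21 action dims this reporter so a rising signal means less miR-21 action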
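HeLa miR-21-FLuc reporter line, endogenous miR-21; 2000 cells/well in DMEM/10% FBS; compound titration up to ~40uM final, 48 h, 37 degree Celsius; luciferase detection reagent, 15 min lysis, CCD luminescence.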
Rango complex inh – prevents formation of the Rango-importin beta complex; Potency, µM (series often up to 92.2 µM), inactives show top-dose inhibition of complex formation; Q14974; Rango CFP/YFP FRET sensor + importin beta, 45 min; 340,000 tested, 0.031% active; active = rising FRET ratio curve, often small or poorly fitted; inconclusive = mostly compound fluorescence or quenching in the first reads; inactive = flat curves in all reads;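 further: potency means the concentration at half of the fitted maximal effect; 0% = DMSO wells and 100% = buffer wells lacking importin beta; nearly all actives have a fitted effect of over 15% in size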
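FRET biosensor (snurportin 1 IBB flanked by EYFP and cerulean), 50 nM, with compound 5 min, then 0.125 microM importin beta in PBS, 1 mM DTT, 0.02% Tween-20, 0.1% BSA. CFP/YFP ratio read after 45 min at room temperature; pre-read flags interference.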
* hit, by the source's call. This is a subset (hit frequency here may not be typical).

How did O=C(OCc1ccccc1)c1cccnc1Cl do in these assays?
GLA inh pH 4.5: 1; Rango dissoc inh: 0%; miR-21 FLuc: -5%; Rango complex inh: -0.8%

Results for Cc1ccc(C2C(C(=O)O)c3ccccc3C(=O)N2C)o1 (stereo unspecified) ?
GLA inh pH 4.5: 10; Rango dissoc inh: 17%; miR-21 FLuc: -2%; Rango complex inh: -1.3%

What do the screens show for `COc1cc2oc(=O)cc(-c3ccc(-c4ccc(CO)cc4)cc3)c2c(OC)c1OC`?
GLA inh pH 4.5: -10; Rango dissoc inh: -3%; Rango complex inh: -1.2%

How did Clc1ccc(CNCCC2=CCCCC2)cc1 do in these assays?
GLA inh pH 4.5: -24; Rango dissoc inh: 1%; miR-21 FLuc: -9%; Rango complex inh: 1.3%

How did OC(CN1CCN(Cc2ccccc2)CC1)c1ccccc1 (stereo unspecified) do in these assays?
GLA inh pH 4.5: -1; Rango dissoc inh: -7%; miR-21 FLuc: -5%; Rango complex inh: -4.1%

How did Fc1ccc(CN2CCSCC2)cc1Br do in these assays?
GLA inh pH 4.5: 0; Rango dissoc inh: 0%; miR-21 FLuc: -3%; Rango complex inh: -0.2%

How did COc1ccc(C2=NOC(C(=O)Nc3ccc(C(C)=O)cc3)C2)cc1OC (stereo unspecified) do in these assays?
GLA inh pH 4.5: 3; Rango dissoc inh: 0%; miR-21 FLuc: -32%; Rango complex inh: -0.3%

What do the screens show for `Nc1nnc(COc2ccc(Br)cc2Br)s1`?
GLA inh pH 4.5: -5; Rango dissoc inh: -5%; miR-21 FLuc: -65%; Rango complex inh: -0.5%

What do the screens show for `COc1cccc(C2C(C(=O)c3cccs3)=C(O)C(=O)N2CCN(C)C)c1OC` (stereo unspecified)?
GLA inh pH 4.5: -8; Rango dissoc inh: 1%; miR-21 FLuc: -5%; Rango complex inh: -1.2%

Results for CCOc1cc(/C=N/NC(=O)CSc2nncn2C)ccc1OCc1ccccc1 ?
GLA inh pH 4.5: -6; Rango dissoc inh: 10%; miR-21 FLuc: -5%; Rango complex inh: 1.1%

How did CC(C)C(=O)Nc1ccc(C(=O)NNC(=O)c2cccs2)cc1 do in these assays?
GLA inh pH 4.5: -2; Rango dissoc inh: -7%; miR-21 FLuc: -15%; Rango complex inh: -1.6%

Results for COc1ccc(Nc2nc(N3CCN(S(=O)(=O)N(C)C)CC3)nc3ccccc23)cc1 ?
Rango dissoc inh: -3%; miR-21 FLuc: 28%; Rango complex inh: -0.4%

What do the screens show for `c1ccc(OCCn2cnc3ccccc32)cc1`?
GLA inh pH 4.5: -11; Rango dissoc inh: 24%; miR-21 FLuc: -18%; Rango complex inh: -4.4%

Results for Cc1ccc(C(=O)N2CCN(Cc3ccccc3)CC2)cc1S(=O)(=O)N1CCOCC1 ?
Rango dissoc inh: 0%; Rango complex inh: -2.9%

How did Cc1nn(C)cc1-c1cc(C(=O)O)c2ccccc2n1 do in these assays?
GLA inh pH 4.5: 3; Rango dissoc inh: 3%; miR-21 FLuc: 2%; Rango complex inh: 5.3%

What do the screens show for `Cc1cc(C)c2c(N)c(S(=O)c3ccc(C(C)(C)C)cc3)sc2n1` (stereo unspecified)?
GLA inh pH 4.5: 4; Rango dissoc inh: 7%; miR-21 FLuc: -2%; Rango complex inh: 0.1%

How did CCC(=O)N1CCN=C1SCc1ccccc1Cl do in these assays?
GLA inh pH 4.5: -2; Rango dissoc inh: -13%; miR-21 FLuc: -11%; Rango complex inh: -5.9%

How did COC(=O)c1sccc1-n1cccc1C(=O)N1CCOCC1 do in these assays?
GLA inh pH 4.5: -8; Rango dissoc inh: 10%; miR-21 FLuc: 2%; Rango complex inh: -0.8%

How did CCC(=O)Oc1oc(-c2ccccc2)nc1C=Nc1ccccc1OC do in these assays?
GLA inh pH 4.5: -2; Rango dissoc inh: -28%; miR-21 FLuc: 1%; Rango complex inh: inconclusive

Results for COc1ccc(OC)c2c(N)c(C#N)c(C(F)(F)C(F)(F)F)nc12 ?
GLA inh pH 4.5: 5; Rango dissoc inh: -7%; miR-21 FLuc: 5%; Rango complex inh: -2.8%

Fetched by structure from the entries so far:
How did CCC(=O)Oc1oc(-c2ccccc2)nc1C=Nc1ccccc1OC do in these assays?
GLA inh pH 4.5: -2; Rango dissoc inh: -28%; miR-21 FLuc: 1%; Rango complex inh: inconclusive

Results for COc1ccc(OC)c2c(N)c(C#N)c(C(F)(F)C(F)(F)F)nc12 ?
GLA inh pH 4.5: 5; Rango dissoc inh: -7%; miR-21 FLuc: 5%; Rango complex inh: -2.8%

How did Clc1ccc(CNCCC2=CCCCC2)cc1 do in these assays?
GLA inh pH 4.5: -24; Rango dissoc inh: 1%; miR-21 FLuc: -9%; Rango complex inh: 1.3%

What do the screens show for `c1ccc(OCCn2cnc3ccccc32)cc1`?
GLA inh pH 4.5: -11; Rango dissoc inh: 24%; miR-21 FLuc: -18%; Rango complex inh: -4.4%

(cont.)
What do the screens show for `Cc1ccc(C(=O)OCC(=O)NCCc2ccccc2)cc1S(=O)(=O)N1CCOCC1`?
Rango dissoc inh: 10%; Rango complex inh: 0.3%

How did Cc1nn(CCc2n[nH]c(=S)n2C2CCCCC2)c(C)c1Br do in these assays?
GLA inh pH 4.5: -1; Rango dissoc inh: -2%; miR-21 FLuc: -12%; Rango complex inh: -0.7%

How did O=S(=O)(CCSc1nc2ccccc2s1)c1nc2ccccc2s1 do in these assays?
GLA inh pH 4.5: 5; Rango dissoc inh: -10%; miR-21 FLuc: inconclusive; Rango complex inh: 1.4%

What do the screens show for `Cc1cc(NC(=O)C(C)SCC(=O)Nc2ccccc2OC(F)F)no1` (stereo unspecified)?
Rango dissoc inh: 22%; miR-21 FLuc: 0%; Rango complex inh: 2.7%

How did O=C(O)CC1(CC(=O)N2CCN(CCO)CC2)CCCC1 do in these assays?
GLA inh pH 4.5: 0; Rango dissoc inh: 5%; miR-21 FLuc: -1%; Rango complex inh: -1.8%

Results for CCc1sc(N(C(=O)Cc2ccccc2)c2ccccc2)nc1-c1ccccc1 ?
GLA inh pH 4.5: -7; Rango dissoc inh: 19%; miR-21 FLuc: -3%; Rango complex inh: 1.6%

What do the screens show for `CCc1nc(C)cn1S(=O)(=O)c1cc(Br)ccc1OC`?
GLA inh pH 4.5: 1; Rango dissoc inh: 2%; miR-21 FLuc: -15%; Rango complex inh: 4.7%

What do the screens show for `NC(=O)CC(NC(=O)Cc1ccc(Br)cc1)c1ccc(NC2CC3CCC2C3)c([N+](=O)[O-])c1` (stereo unspecified)?
Rango dissoc inh: 2%; miR-21 FLuc: 16%; Rango complex inh: 3.9%

Results for Oc1c(Br)cc(Br)cc1C=NCc1ccc(F)cc1 ?
GLA inh pH 4.5: -4; Rango dissoc inh: inconclusive; miR-21 FLuc: 0%; Rango complex inh: inconclusive

Results for O=C(OCc1ccc([N+](=O)[O-])cc1)C1CCN(S(=O)(=O)c2ccccc2)CC1 ?
GLA inh pH 4.5: -6; Rango dissoc inh: -23%; miR-21 FLuc: -3%; Rango complex inh: -0.6%

What do the screens show for `CCN(CC(=O)Nc1cc(Cl)ccc1C)C(=O)COc1ccccc1F`?
GLA inh pH 4.5: 7; Rango dissoc inh: 13%; miR-21 FLuc: 1%; Rango complex inh: -2.0%

What do the screens show for `CCOC(=O)c1c(N2C(=O)CC(Sc3ccccc3C(=O)O)C2=O)sc(C)c1C` (stereo unspecified)?
GLA inh pH 4.5: -1; Rango dissoc inh: 0%; miR-21 FLuc: 4%; Rango complex inh: -0.7%

What do the screens show for `CN(C)c1ccc(-c2noc(C3CCN(S(=O)(=O)c4cccc(C(=O)O)c4)CC3)n2)cc1`?
GLA inh pH 4.5: -18; Rango dissoc inh: 2%; miR-21 FLuc: 1%; Rango complex inh: 1.9%

What do the screens show for `CCOC(=O)C1CCCN(c2ncnc3c2cnn3-c2ccc(Cl)cc2)C1` (stereo unspecified)?
GLA inh pH 4.5: -2; Rango dissoc inh: -6%; miR-21 FLuc: -8%; Rango complex inh: -2.2%

Results for COc1cccc(N2C(=O)C3CCCN3C2c2ccc(F)cc2)c1 (stereo unspecified) ?
GLA inh pH 4.5: 7; Rango dissoc inh: 18%; miR-21 FLuc: -6%; Rango complex inh: 1.7%

What do the screens show for `CCn1c(CC(=O)Nc2ccccc2)nnc1SCC(=O)Nc1nnc(C)s1`?
Rango dissoc inh: 2%; miR-21 FLuc: 1%; Rango complex inh: -2.9%

What do the screens show for `COc1cccc(-n2nnnc2SCC(=O)NCc2ccco2)c1`?
GLA inh pH 4.5: -14; Rango dissoc inh: 0%; miR-21 FLuc: 3%; Rango complex inh: -0.4%

What do the screens show for `CCN(CC)S(=O)(=O)c1ccc(NCc2ccccn2)nc1`?
Rango dissoc inh: 2%; miR-21 FLuc: -3%; Rango complex inh: -0.3%

How did O=C1NC(=O)C(=C2CCCCCC2)S1 do in these assays?
GLA inh pH 4.5: -13; Rango dissoc inh: -1%; miR-21 FLuc: -18%; Rango complex inh: 2.5%

What do the screens show for `Cc1cc(C(=O)COC(=O)c2ccc(CO)cc2)c(C)n1CC1COc2ccccc2O1` (stereo unspecified)?
GLA inh pH 4.5: -5; Rango dissoc inh: -6%; miR-21 FLuc: -7%; Rango complex inh: -0.1%

What do the screens show for `CCc1cc(CNC(=O)CC2C(=O)NCCN2CC2CCCCC2)on1` (stereo unspecified)?
GLA inh pH 4.5: -2; Rango dissoc inh: -19%; miR-21 FLuc: -3%; Rango complex inh: 0.2%

What do the screens show for `O=C(CSc1ncccc1C(=O)O)NC1CCCCCCC1`?
GLA inh pH 4.5: 8; Rango dissoc inh: -17%; miR-21 FLuc: 0%; Rango complex inh: 1.3%

What do the screens show for `COc1cccc(CN2CCN(C(=S)NCc3ccc(Cl)cc3)CC2)c1`?
GLA inh pH 4.5: -4; Rango dissoc inh: 0%; miR-21 FLuc: 9%; Rango complex inh: -4.1%

Results for CC1CCCCC1NC(=O)COC(=O)CCC(=O)c1cccs1 (stereo unspecified) ?
Rango dissoc inh: -18%; Rango complex inh: -1.2%

How did COc1ccc(CN(C)C(=O)c2ccc(NS(=O)(=O)c3ccc(F)cc3)cc2)c(OC)c1 do in these assays?
Rango dissoc inh: -13%; miR-21 FLuc: -12%; Rango complex inh: -1.1%

How did CCCCNc1cc(NC(C)=O)cc2cc(OC)c(OC)cc12 do in these assays?
GLA inh pH 4.5: 7; Rango dissoc inh: -3%; miR-21 FLuc: 7%; Rango complex inh: 4.8%

Results for CCOC(=O)C(=CNc1ccc2c(c1)c1ccccc1n2CC)C(=O)OCC ?
GLA inh pH 4.5: -13; Rango dissoc inh: -14%; miR-21 FLuc: -1%; Rango complex inh: 2.8%

How did CSc1ccc(S(=O)(=O)NCCCn2ccnc2)cc1 do in these assays?
Rango dissoc inh: 5%; miR-21 FLuc: 5%; Rango complex inh: -2.4%

Results for COC(=O)c1cc(Oc2ccc(C(=O)OC)cc2N)cc(C(=O)OC)c1 ?
GLA inh pH 4.5: 0; Rango dissoc inh: -15%; miR-21 FLuc: -10%; Rango complex inh: -2.3%

How did CCOC(=O)CNC(=O)CSc1nnnn1-c1cc(C)ccc1C do in these assays?
GLA inh pH 4.5: 4; Rango dissoc inh: 11%; miR-21 FLuc: -5%; Rango complex inh: -2.1%

Results for Cc1nnc(SCC(=O)Nc2nccs2)o1 ?
Rango dissoc inh: -13%; miR-21 FLuc: 0%; Rango complex inh: -0.1%

What do the screens show for `O=c1c2ccccc2cnn1Cc1n[nH]c(=S)n1-c1ccccc1F`?
GLA inh pH 4.5: 2; Rango dissoc inh: 1%; miR-21 FLuc: -2%; Rango complex inh: 6.1%

How did N#CCCn1cc(C(=O)Nc2ccc([N+](=O)[O-])cc2)c(-c2cccs2)n1 do in these assays?
GLA inh pH 4.5: -1; Rango dissoc inh: -8%; miR-21 FLuc: 4%; Rango complex inh: 1.3%

How did COc1ccc(COC(=O)NNC(=O)c2ccccc2Cl)cc1 do in these assays?
GLA inh pH 4.5: 5; Rango dissoc inh: 2%; miR-21 FLuc: 1%; Rango complex inh: 0.2%

What do the screens show for `Cc1ccc(NC(=O)CSc2nnc(N)s2)c([N+](=O)[O-])c1`?
GLA inh pH 4.5: 16; Rango dissoc inh: inconclusive; miR-21 FLuc: -13%; Rango complex inh: 2.6%
